HCMV NEC inh = disrupts HCMV UL50-UL53 complex binding; HTRF UL50-UL53 interaction, normalized percent inhibition; inhibition, % (test concentration not listed); 190,000 tested, 0.15% active; AID 1918969;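 active = both replicates at 50% or more, plus weaker picks with an unusually low signal ratio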;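 also: stock transfer was 100 nL into about 20 µL; 0% = negative control wells and 100% = wells with untagged competitor protein; inactives centre near -12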
Sa growth 42C = S. aureus growth inhibition; S. aureus RN4220 growth, OD600, 20 h, 42 °C; active compounds read low; AID 720641; 170,000 tested, 0.53% active; relative growth, % (concentration not given with the values);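 active = growth at 42 °C up to 50% and 20 or more points under that at 30 °C, or under 10% at both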;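 also: 300 nL library stock went into each well; scaled to the means of positive and negative controls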
GIV-Gai inh = inhibitors of GIV GBA-motif binding to rat Galpha-i3; P08753; 210,000 tested, 0.42% active; percent of control (FP), % (concentration not given with the values); Galpha-i3/FITC-GIV peptide fluorescence polarization, 90 min; active compounds read low; scaled: aluminum fluoride 0%, vehicle 100%;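 active = replicate mean at 85% of control or lower, very high polarization wells dropped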;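 also: wells of about 15 µL received 100 nL stock; the first replicate is given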
Target sequence (P08753 whole entry, looked up): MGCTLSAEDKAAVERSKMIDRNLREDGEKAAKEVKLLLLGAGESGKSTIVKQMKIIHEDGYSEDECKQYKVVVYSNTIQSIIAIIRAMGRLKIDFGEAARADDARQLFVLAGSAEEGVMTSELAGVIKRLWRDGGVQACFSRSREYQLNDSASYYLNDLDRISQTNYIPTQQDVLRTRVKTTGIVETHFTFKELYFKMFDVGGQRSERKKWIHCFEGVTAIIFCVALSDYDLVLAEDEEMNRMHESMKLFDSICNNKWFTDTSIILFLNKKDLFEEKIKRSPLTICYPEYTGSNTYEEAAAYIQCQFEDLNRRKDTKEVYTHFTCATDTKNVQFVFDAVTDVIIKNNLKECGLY
Sa growth 42C second temp = also measured in Sa growth 42C; calls as there; relative growth, %; measured here: growth at 30 °C;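 optical density after 20 h as mean of two plates; 100% = untreated growth and lower means inhibition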
The depositor's hits bear a star; . = no result given; & = joins results of further samples. Hits appear at their usual frequency, and some 0.83% of all compounds hit somewhere here.

Start of the data: the first six records, to show the layout:
SMILES	HCMV NEC inh	Sa growth 42C	Sa growth 42C second temp	GIV-Gai inh
CN1C(=O)C(C)(C)c2cc(S(=O)(=O)N3CCCC3)ccc21	.	102	84	104
Cc1noc(C)c1COc1ccc(C(=O)OCC(=O)NC23CC4CC(CC(C4)C2)C3)cc1	-25	92	91	.
COC(=O)c1ccc(NC(=O)CCSc2ccccc2)cc1	-1	96	96	100
COc1cc(OC)cc(-n2c(=O)c3ccccc3n(Cc3ccccc3C#N)c2=O)c1	9	99	98	106
CCN(CC)CCCNc1nc(C)nc2c1nnn2Cc1ccccc1	6	116	91	106
O=C1NC(=O)c2cc(-c3ccccc3)ccc21	-61	70	77	.

This part in full, from the first entry:
SMILES	HCMV NEC inh	Sa growth 42C	Sa growth 42C second temp	GIV-Gai inh
CN1C(=O)C(C)(C)c2cc(S(=O)(=O)N3CCCC3)ccc21	.	102	84	104
Cc1noc(C)c1COc1ccc(C(=O)OCC(=O)NC23CC4CC(CC(C4)C2)C3)cc1	-25	92	91	.
COC(=O)c1ccc(NC(=O)CCSc2ccccc2)cc1	-1	96	96	100
COc1cc(OC)cc(-n2c(=O)c3ccccc3n(Cc3ccccc3C#N)c2=O)c1	9	99	98	106
CCN(CC)CCCNc1nc(C)nc2c1nnn2Cc1ccccc1	6	116	91	106
O=C1NC(=O)c2cc(-c3ccccc3)ccc21	-61	70	77	.
O=S1(=O)CCC(S(=O)(=O)N(Cc2ccccc2)Cc2ccccc2)C1 (stereo unspecified)	-13	.	.	98
Cc1cc2c(cc1S(=O)(=O)N1CCCC(C(=O)NCc3ccccc3Cl)C1)OCC(=O)N2 (stereo unspecified)	-35	.	.	101
Cc1cc(-c2ccc(C)c(S(=O)(=O)N3CCN(c4cccc(C(F)(F)F)c4)CC3)c2)on1	.	97	91	103
O=C(NCc1ccncc1)Nc1ccccc1	16	98	90	103
CCOC(=O)c1ccc(NC(=O)Cn2c3ncccc3c(=O)n2-c2ccc(C)c(C)c2)cc1	.	88	80	111
Cc1nc2c(oc3nc(-c4ccco4)c4c(c32)CC(C)(C)OC4)c(-c2ccccc2)c1C(=O)O	-32	97	45	122
Cc1cc(C(=O)N2CCN(c3ccccc3F)CC2)c2cccc(-c3ccccc3)c2n1	-20	.	.	109
Cc1ccc(C(=O)CSc2cnc3ccccc3n2)cc1C	-42	120	88	.
O=C(OCC(=O)N1CCCCC1)c1ccc(I)cc1	-11	101	101	.

Some entries already given, limited to Sa growth 42C, HCMV NEC inh and GIV-Gai inh.
SMILES	Sa growth 42C	HCMV NEC inh	GIV-Gai inh
Cc1nc2c(oc3nc(-c4ccco4)c4c(c32)CC(C)(C)OC4)c(-c2ccccc2)c1C(=O)O	97	-32	122
Cc1ccc(C(=O)CSc2cnc3ccccc3n2)cc1C	120	-42	.

The listing continues.
SMILES	HCMV NEC inh	Sa growth 42C	Sa growth 42C second temp	GIV-Gai inh
N=C1C(c2nc3ccccc3[nH]2)=C(O)CN1CCN1CCOCC1	-38	82	90	.
CN1CCCCc2c1nc1ccccc1c2N	-3	102	109	99
COc1ccc(CCNC(=O)C(=O)NCC(c2ccc3c(c2)OCO3)N2CCOCC2)cc1OC (stereo unspecified)	.	104	83	94
Cc1onc(-c2ccccc2)c1CNC(=O)c1ccccc1	1	103	90	102
CCS(=O)(=O)NCc1csc(C)n1	-28	95	90	105
NS(=O)(=O)c1ccc(CNC(=O)CSc2ncccn2)cc1	-27	63	91	.
CC1CCCN(C(=O)c2ccc(NC(=O)c3ccc(=O)[nH]c3)cc2)C1 (stereo unspecified)	0	104	91	.
CCN(C(=O)COc1ncnc2ccccc12)C1CCCCC1	20	109	103	.
N#CCN1C(=O)c2ccccc2C1=O	-18	107	96	113
O=C(NCc1ccncc1)c1ccc(N2CCCCS2(=O)=O)cc1	-3	98	100	107
CCN(CC)S(=O)(=O)c1cc(C(=O)NC)ccc1Cl	-20	105	95	.
CCCCSCCCNC(=O)CN1C(=O)COc2ccc(S(=O)(=O)N3CCC(C)CC3)cc21	0	93	106	100
O=C(O)c1cccc2c1C(=O)N(Cc1cccnc1)C2	-10	129	101	101
Cc1cc(C)c(S(=O)(=O)N(CCC(C)C)S(=O)(=O)c2ccccc2C#N)c(C)c1	-24	85	90	.
CC(C)C(=O)NC1C2CC3CC(C2)CC1C3 (stereo unspecified)	-40	102	100	102

Entries of single compounds as entered above:
CCS(=O)(=O)NCc1csc(C)n1 is entered as HCMV NEC inh: -28; Sa growth 42C: 95; Sa growth 42C second temp: 90; GIV-Gai inh: 105
O=C(O)c1cccc2c1C(=O)N(Cc1cccnc1)C2 is entered as HCMV NEC inh: -10; Sa growth 42C: 129; Sa growth 42C second temp: 101; GIV-Gai inh: 101
CC(C)C(=O)NC1C2CC3CC(C2)CC1C3 (stereo unspecified) is entered as HCMV NEC inh: -40; Sa growth 42C: 102; Sa growth 42C second temp: 100; GIV-Gai inh: 102

Later entries.
SMILES	HCMV NEC inh	Sa growth 42C	Sa growth 42C second temp	GIV-Gai inh
Cc1cc(NCCN(C)C)n2nc(C(F)(F)F)c(-c3ccc(Cl)cc3)c2n1	4	.	.	104
COc1ccc(NC(=O)N2CCN(C(=O)C(Cc3ccc(F)cc3)NC(C)=O)CC2)cc1 (stereo unspecified)	9	101	90	103
Cc1ccc(-n2c(=O)c3c(cnn3C)n(CC(=O)Nc3c(C)cccc3C)c2=O)cc1	10&-31	109	92	97&103
CC(C)c1cc(NCc2cccnc2)n2nc(-c3cccnc3)nc2n1	-6	.	.	108
CS(=O)(=O)Nc1cccc(C(F)(F)F)c1	-23	88	89	105
Cc1nc2cc(-c3cccc(F)c3)nn2c(C)c1CCC(=O)Nc1ccccc1C(N)=O	-22	95	94	104
Cc1cc(NC(=O)CNCc2ccccc2)n(-c2nc3ccccc3s2)n1	0	104	90	.
O=C(CNc1ccc(C(=O)O)cc1)NCc1ccc2c(c1)OCO2	-16	93	86	104
NC(=O)COC(=O)c1cccc2c1-c1ccccc1C2=O	-132	98	82	101
CCCCc1ccc(-n2nc3cc(C)c(NC(=O)Cc4ccccc4)cc3n2)cc1	-4	90	102	113
Cn1c(C(C#N)C(=O)c2cccc(N3C(=O)c4ccccc4C3=O)c2)nc2ccccc21 (stereo unspecified)	-25	98	92	.
COc1ccc(-c2cn3c(C)c(C(=O)N4CCN(c5ccccc5)CC4)sc3n2)cc1	.	92	90	102
CCOc1ccc(CCNc2nc3ccccc3n3c(C)nnc23)cc1OCC	-3	86	92	107
CC(C)(Oc1ccc(Cl)cc1)C(=O)Nc1nccs1	-9	95	88	.
COc1ccc(-c2[nH]ncc2C(=O)NCc2ccccc2C)cc1	-24&-24	101	90	103&106
Cc1ccc(NC(=O)NC(=O)CSc2nnc(Cc3csc(C)n3)o2)c(C)c1	-36	86	85	.
Cn1c2ccccc2n2c(C(=S)Nc3ccccc3)c(-c3ccccc3)nc12	2	107	92	.
CC(C)(C)C(=O)CON1C(=O)c2ccccc2C1=O	8	92	104	102
CCCN(C(=O)c1cccc(F)c1)c1nc(-c2ccc(C)cc2)cs1	-34	.	.	102
COc1ccc(OCCNC(=O)N2CCOCC2)cc1	-30	99	100	107
COCCCn1c(SCC(=O)N(Cc2ccco2)c2nccs2)nc2sc3c(c2c1=O)CCC3	0	102	91	103
Cc1cc(C(=O)COC(=O)Cn2cnnn2)c(C)n1CC1COc2ccccc2O1 (stereo unspecified)	4	95	93	.
CC(C)C1=CC23CCC4C(C)(C(=O)O)CCCC4(C)C2CC1C1C(=O)N(CCO)C(=O)C13 (stereo unspecified)	-4	.	.	106
CC(=O)NC(CC(=O)O)c1ccc(F)cc1 (stereo unspecified)	-31	101	88	102
Cc1ccc(NC(=O)CCCN2C(=O)COc3ccc(C)cc32)c(C)c1	17	100	88	107
Cc1ccc(Nc2cc(-c3ccccc3)nc3ncnn23)cc1	34	84	92	105
Cc1nc(SCC(=O)c2ccc3[nH]c(=O)[nH]c3c2)c2ccccc2n1	-19	78	86	.
CCC(C(=O)O)n1nnc(-c2ccc(Cl)cc2)n1 (stereo unspecified)	-14	109	98	.
CCOc1ccc(S(N)(=O)=O)cc1OCC	6	107	98	.
Cc1cc2n(n1)CCC(=O)N2Cc1ccc(C(=O)Nc2ccc(F)cc2F)cc1	.	80	94	108
COc1ccccc1N1CCN(Cc2cc(=O)n3ccsc3n2)CC1	6	.	.	104
Cc1noc(C)c1COC(=O)C(C)N1C(=O)c2ccccc2C1=O (stereo unspecified)	3	109	102	.
COc1ccc2cc3c(N)nn(C(=O)c4ccc(F)cc4Cl)c3nc2c1	-60&-112	101	63	109&98
C#CCSc1ccccc1C(=O)O	8	101	98	.
C=CCc1ccccc1OCCSc1nc(-c2cccs2)nc2cc(=O)[nH]n12	.	93	89	100
COc1ccc(C=NCc2ccc(OC)c(OC)c2)cc1OC	-34	95	87	103
Cc1cn(C(=O)c2ccccc2)c(=O)[nH]c1=O	-8	118	105	106
Cc1ccccc1OCCCCn1nnc2sc3c(c2c1=O)CCC(C)C3 (stereo unspecified)	-12	104	91	102
Cn1c(N)c(C(=O)COC(=O)c2cc(S(=O)(=O)N3CCOCC3)ccc2F)c(=O)n(C)c1=O	-5	90	84	.
N#C/C(=C1/NS(=O)(=O)c2ccccc21)c1nc2ccccc2[nH]1	-44	97	83	.
NNC(=O)c1ccc(Oc2cccc(C(F)(F)F)c2)nc1	-24	100	88	106
CN(C)/C=C/C(=O)c1cccc(C(F)(F)F)c1	-32	95	89	106
CCOC(=O)c1c(C)n(C)c2c1cc(O)c1c2c(-c2ccccc2)nn1-c1ccccc1	-3	.	.	103
CCc1ccccc1NC(=S)N(CCC(C)C)C(C)c1ccco1 (stereo unspecified)	-12	101	93	103
CC(C)Cc1cc(C(=O)NCc2ccco2)no1	.	92	95	102
O=C(CSc1ncn[nH]1)N1CCN(S(=O)(=O)c2ccccc2)CC1	-21	94	97	.
COc1cc(N)c(Cl)cc1C(=O)OCC(=O)N(C)c1ccccc1	0	103	104	.
CC(=O)Nc1ccc(S(=O)(=O)Nc2nccc(C3Cc4ccccc4C(=O)O3)n2)cc1 (stereo unspecified)	-18	104	99	101
CCCc1nc2nc(C)cc(Nc3ccc(Br)c(C)c3)n2n1	-6	.	.	99
COc1ccc(-n2c(SCCNCCO)nc3ccccc32)cc1	4	94	95	.
CC(=O)c1c(C)nc2nc(-c3ccccc3)nn2c1C	8	82	81	103
COC(=O)c1ccc(-n2ccnc2)cc1	5	.	.	101
CCC1(CC)Cc2ccccc2C(c2cc3ccccc3oc2=O)=N1	.	94	92	108
O=C(Cc1c(F)cccc1Cl)N1CCC2(CC1)OCCO2	2	115	105	103
CSc1nc(N)nc(SC2C=CCCC2)c1C#N (stereo unspecified)	-19	124	83	102
Cc1cc(C)c2cc(C(=O)N(Cc3ccccc3)Cc3ccccn3)[nH]c2c1	-18	83	80	103
COc1ccc(C2C(C(=O)O)c3ccccc3C(=O)N2C)cc1OC (stereo unspecified)	-18	.	.	102
CC(=O)SCC(Cc1ccccc1)C(=O)NCC(=O)OCc1ccccc1 (stereo unspecified)	-31&8&-75&-22	91&92	84&87	101
Cc1nc2ccccc2n1C(=O)CCC(=O)O	-45	102	83	106
CNC(=O)CC1SC(N)=NC1=O (stereo unspecified)	-3	121	87	102

(cont.)
SMILES	HCMV NEC inh	Sa growth 42C	Sa growth 42C second temp	GIV-Gai inh
O=C(c1ccccc1)n1nc(-c2ccccc2)nc1NCc1ccco1	.	76	87	96
Nc1nc(O)c(C2=c3cc(Br)ccc3=NC2=O)s1	-27	85	78	104
COc1ccc(C)c2sc(NC(=O)c3ccc(S(=O)(=O)N4CCOCC4)cc3)nc12	.	94	94	103
C=CCN1C(=O)C(O)(c2cnc(N)s2)c2ccccc21 (stereo unspecified)	-42	84	93	.
O=C(c1ccco1)N1CCN=C1SCc1ccccc1	-39	84	86	101
Cc1cc(C)cc(NC(=O)Cc2csc(COc3cccc(C)c3)n2)c1	-27	105	88	105
CC(C)c1nnc(NC(=O)CSc2nc(-c3ccccc3)cc(=O)[nH]2)s1	-23	73	72	101
N#Cc1ccccc1Sc1ccccc1C(=O)Nc1cc(Cl)ccc1-n1cncn1	-5	125	98	.
COc1cc(S(=O)(=O)n2nnc3ccccc32)c(OC)cc1C	19	101	87	101
Cc1ccc(-n2nc(C(=O)N(C)c3ccccc3Cl)c3c4ccccc4n(C)c3c2=O)cc1	-10	100	93	101
Clc1ccc(-c2noc3ncnc(N4CCc5ccccc54)c23)cc1	-30	96	90	98
COc1ccc(-c2noc(CCCC(=O)NC(C)C)n2)cc1	-12	86	84	100
COc1ccccc1C(=O)Nc1ccccc1OCc1cc(=O)n2ccccc2n1	.	80	84	101
COC(=O)c1ccc(C2C(C#N)=C(N)Oc3n[nH]c(-c4ccc5ccccc5c4)c32)cc1 (stereo unspecified)	-6	.	.	102
COc1ccc(CN(C)Cc2cccc(S(=O)(=O)N(C)C)c2)c(OC)c1OC	-2	90	105	.
CC1=C(C(=O)OCCOc2ccccc2)C(c2cc3c(cc2Br)OCO3)NC(=O)N1C (stereo unspecified)	-5	.	.	103
CC(=O)OC1CCC2CC1CCC2OC(C)=O (stereo unspecified)	-2	110	77	99
O=C1COc2cc(S(=O)(=O)CCC(=O)N3CCN(c4cccc(Cl)c4)CC3)c(Cl)cc2N1	.	121	53	105
C=CCn1c(SC/C(O)=C(\C#N)c2nc3ccccc3[nH]2)nc2ccccc2c1=O	4	71	90	.
CCc1ccc(-c2cc3c(=O)n(CC(=O)NCCN4CCOCC4)nc(C)n3n2)cc1	.	102	89	99
O=C1c2ccccc2S(=O)(=O)N1Cc1cccc2ccccc12	-15	87	94	106

Screening data (PubChem)
